PrP 5UTR inh: inhibition of PrP 5' UTR reporter expression | cell-based PrP 5' UTR mRNA reporter, plate reader | inhibition, % (no concentration beside the values) | 340,000 compounds, 0.35% hits;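 active = every replicate at 50% or more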;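 note: 0 = median of the neutral control wells; tested in H4 reporter cells; numbers are from one replicate; inactives centre near -14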
Mtb hypoxia rep: inhibitors of hypoxia-regulated fluorescent reporter in Mycobacterium tuberculosis; M. tuberculosis hypoxia-regulated fluorescent reporter, fluorescence; fluorescence inhibition, % (concentration not given with the values); 300,000 compounds, 0.1% hits;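 active = 35 to 45% if threefold the growth effect, above 45% if 1.5-fold the growth effect; inactive = the rest, general growth blockers included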;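 note: wells of about 50 µL received 100 nL stock; 0% = vehicle wells and 100% = reference inhibitor wells; whole bacteria with a GFP reporter of the hypoxia response; strong numbers were not always called active; many hits fall short of the cut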
BJeLR lethal: kills HRASV12-expressing BJeLR cells; BJeLR (HRASV12) viability, CellTiter-Glo ATP luminescence, 48 h; reference of the scale not given here; inhibition, % (no concentration beside the values); 300,000 compounds, 0.17% hits; AID 1554;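 active = replicate mean above 50%; inconclusive = above 50% but judged a plate artefact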;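 note: 50 nL library stock added to about 25 µL; numbers are from one replicate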
RN4220 kill: S. aureus RN4220 growth inhibition. OD600, 16 h. inhibition, % (test concentration not listed). 330,000 compounds, 0.33% hits;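 active = z-score of -3 or lower and OD600 up to 0.18 on both plates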;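 note: plate controls were untreated cells for no effect and reference antibiotic for full effect; stock transfer was 100 nL into about 80 µL; one replicate is shown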
Sa ugtP lethal: kills S. aureus RN4220 lacking UgtP. 330,000 compounds, 0.54% hits. growth inhibition, % (no concentration beside the values). S. aureus RN4220 ugtP deletion, OD600 growth, 16 h; some inactives read as strong as hits;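 active = z-score under -3 and OD600 up to 0.15 on both plates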;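 note: plate controls were untreated wells for no effect and antibiotic for full effect; wells of about 80 µL received 100 nL stock; the first replicate is given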
Bead autofluor: counter-screen for toxin protease inhibitors: compound fluorescence. AID 624483. 360,000 compounds, 3.1% hits. compound autofluorescence counterscreen, microsphere flow cytometry; stronger effect = higher value. fluorescence intensity (no concentration beside the values);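 active = at least 3 SD above the mean of all compounds, about 16000 in these data; inconclusive = too few beads counted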;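 note: 100 nL of 1 mM stock went into each well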
Mtb hypoxia rep growth: recorded beside Mtb hypoxia rep, whose call it bears; growth inhibition, %; measured here: M. tuberculosis growth (absorbance);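 0% = vehicle and 100% = reference antibiotic; read after six days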
The depositor's hits bear a star; u = inconclusive; x = no result given.

SMILES | PrP 5UTR inh | Mtb hypoxia rep | Mtb hypoxia rep growth | BJeLR lethal | RN4220 kill | Sa ugtP lethal | Bead autofluor
COc1ccc(NC(=O)C2(c3ccc(NC(=O)c4ccc(OC(C)=O)cc4)cc3)CCCC2)cc1 | -24 | -5 | 0 | -11 | -0.9 | -13 | 20395*
Cc1ccc2c(C)c(C(=O)NCCN3CCCC(O)C3)oc2c1C (stereo not given) | -15 | -4 | -1 | 3 | -3.2 | -9 | 5295
Cn1c(=O)oc2cc(S(=O)(=O)N3CCC(C(=O)NCCc4ccccc4)CC3)ccc21 | -18 | -6 | 7 | -6 | 6.0 | 4 | 3668
O=C(c1ccccc1CCc1ccccc1)N1CCN(c2ccccn2)CC1 | -9 | 14 | 16 | 13 | -6.3 | -4 | 2854
CC1CC(C)CN(C(=O)Cn2ncc3c([nH]c4ccccc43)c2=O)C1 (stereo not given) | -17 | 3 | 4 | -4 | 2.2 | -1 | 5722
COc1ccc(CN(CC(=O)NC2CCCCC2)C(=O)CCC(=O)Nc2nccs2)cc1 | -9 | -3 | -13 | 10 | 4.2 | 5 | 5869
Cc1ccc2[nH]c3c(=O)n4c(nc3c2c1)SCC4 | -18 | 2 | 2 | -4 | 10 | -1 | 4549
C#CCSc1nnc(-c2cc3c(C(F)(F)F)nn(C)c3s2)n1C | -23 | 15 | 16 | -7 | 4.0 | -1 | 2508
Cc1cccc(CN2CCc3c([nH]c4ccccc34)C2)c1 | -6 | x | x | 6 | x | x | 4883
NC(=O)c1ccc(NCCCN2CCOCC2)c([N+](=O)[O-])c1 | -9 | 4 | 8 | 8 | 4.0 | 6 | 2103
COCCCn1c(CCC(=O)O)ccc1-c1cccs1 | -15 | x | x | -6 | 3.6 | -6 | 2776
CCOc1cc(C(=O)NCc2ccncc2)cc(OCC)c1OCC | 3 | -1 | 5 | 5 | -0.7 | 0 | 19468*
Cc1c(NC(=O)c2ccc(S(=O)(=O)Nc3ccccc3F)cc2)c(=O)n(-c2ccccc2)n1C | -30 | 13 | 9 | x | -1.9 | 8 | 3360
C=C(C)COc1ccc(-c2[nH]ncc2Oc2ccccc2OCC)c(O)c1 | -27 | 3 | -4 | -1 | -16 | -1 | 3428
Cc1ccn2c(=O)nc(SCC(=O)NCc3ccccc3Cl)nc2c1 | -6 | 7 | 4 | 7 | 2.6 | -2 | 6829
CSc1ccc(C(=S)N2CCN(Cc3ccccc3)CC2)cc1 | -39 | 15 | 5 | 8 | 0.9 | 13 | 19865*
Clc1ccccc1Cc1noc(CN2CCN3CCCC3C2)n1 (stereo not given) | -64 | 1 | 15 | 5 | 2.6 | 0 | 3518
COc1ccc(CCN2CC(C(=O)N(C)CCOc3ccccc3)CCC2=O)cc1 (stereo not given) | -24 | 6 | 0 | 14 | 3.7 | 11 | 5983
O=C(CNc1cccc(C(F)(F)F)c1)N/N=C/c1cn(-c2ccccc2)nc1-c1ccccc1 | -12 | x | x | 1 | x | x | 1919
COC(=O)c1ccc2c(=O)n(CCCN3CCCC3=O)c(=S)[nH]c2c1 | -26 | 4 | 7 | -5 | 2.5 | -2 | 11423
CC(OC(=O)CNS(=O)(=O)c1ccc(C#N)cc1)C(=O)Nc1ccc(Cl)cn1 (stereo not given) | -10 | -1 | -4 | -1 | 3.9 | 7 | 5416
CN(C)S(=O)(=O)c1ccc(C(=O)N2CCN(S(=O)(=O)c3ccc4c(c3)OCCO4)CC2)cc1 | -4 | -4 | 7 | x | 2.8 | 3 | 4039
COc1ccc(NC(=O)C(C)N=C2NS(=O)(=O)c3ccccc32)cc1S(N)(=O)=O (stereo not given) | -17 | 26* | 67* | x | -0.4 | 0 | 7267
O=c1[nH]c(=S)n(-c2ccccc2F)c(O)c1C=NCCN1CCNCC1 | -21 | 3 | -2 | -5 | 2.3 | -2 | 3655
COCCNC(=O)CSc1nc(-c2ccc(OC)c(OC)c2)cc(C(F)(F)F)n1 | -23 | 9 | 9 | 3 | 5.1 | 0 | x
CN(CC(=O)Nc1cccc(F)c1)C(=O)CCCN1C(=O)c2cccc3cccc(c23)C1=O | -26 | -11 | 5 | 10 | -8.0 | -13 | 6023
CC(=O)Nc1ccc(N2CCCCC2)c(C(=O)Nc2cccc(C)c2)c1 | -94 | -7 | 2 | 0 | 8.9 | -14 | 5733
CN(C(=O)COC(=O)c1cn(C)c2ccccc12)C1CCCCC1 | -13 | 6 | 9 | x | 1.8 | 8 | 5341
Cc1ccc(-n2c(P(C)(=O)O)nc3ccccc32)cc1 | -23 | -2 | 5 | 4 | -0.9 | -9 | 3957
CCc1ccccc1N1C(=O)CC(N2CCc3ccccc32)C1=O (stereo not given) | -7 | 3 | 3 | -9 | 7.9 | 1 | 4587
Cc1ccc(-n2nnnc2CSc2nnc(-c3ccc(O)cc3)o2)cc1 | -25 | 5 | 10 | -4 | 5.4 | 3 | 8103
Cc1ccc(S(=O)(=O)NCc2ccncc2)c(C)c1C | -30 | -2 | 14 | 15 | 1.4 | 3 | 5004
COc1ccc(CC(=O)OCC(=O)c2ccc(F)cc2)cc1 | -18 | 13 | 7 | x | 4.7 | 2 | 3328
CCOC(=O)c1ccc(N2CN(CC)CNC2=S)cc1 | -5 | x | x | 1 | 8.0 | 10 | 10772
COc1ccc(-n2ccsc2=S)cc1 | -17 | 10 | 1 | -5 | 3.1 | 5 | 9741
CCOC(=O)CSCC(=O)Nc1ccc(S(=O)(=O)N2CCCCC2)cc1 | -14 | x | x | -5 | -3.0 | 5 | 4024
COc1ccccc1N1CCN(C(=O)c2cc(C)oc2C)CC1 | -32 | 12 | 10 | 12 | 10 | 5 | 3266
CC(=O)c1sc(=S)n(-c2ccccc2)c1C | -35 | 12 | 13 | -3 | 2.7 | -2 | x
COc1ccccc1CNC(=O)c1cc(S(=O)(=O)N2CCCCC2)c[nH]1 | -29 | -1 | 3 | 15 | 0.2 | 4 | 5448
COCCCNC(=S)Nc1ccc2c(c1)OCCO2 | -32 | 1 | 7 | -4 | 4.2 | 6 | 2458

Given with values under each structure: entries from further up
Order of results: PrP 5UTR inh | Mtb hypoxia rep | Mtb hypoxia rep growth | BJeLR lethal | RN4220 kill | Sa ugtP lethal | Bead autofluor
> COc1ccc(CN(CC(=O)NC2CCCCC2)C(=O)CCC(=O)Nc2nccs2)cc1
 : -9 | -3 | -13 | 10 | 4.2 | 5 | 5869
> Cc1ccc2[nH]c3c(=O)n4c(nc3c2c1)SCC4
 : -18 | 2 | 2 | -4 | 10 | -1 | 4549
> C#CCSc1nnc(-c2cc3c(C(F)(F)F)nn(C)c3s2)n1C
 : -23 | 15 | 16 | -7 | 4.0 | -1 | 2508
> Cc1cccc(CN2CCc3c([nH]c4ccccc34)C2)c1
 : -6 | x | x | 6 | x | x | 4883
> NC(=O)c1ccc(NCCCN2CCOCC2)c([N+](=O)[O-])c1
 : -9 | 4 | 8 | 8 | 4.0 | 6 | 2103
> COCCCn1c(CCC(=O)O)ccc1-c1cccs1
 : -15 | x | x | -6 | 3.6 | -6 | 2776

(cont.)
SMILES | PrP 5UTR inh | Mtb hypoxia rep | Mtb hypoxia rep growth | BJeLR lethal | RN4220 kill | Sa ugtP lethal | Bead autofluor
CC1CCCCC1NC(=O)COc1cccnc1[N+](=O)[O-] (stereo not given) | -9 | 3 | 8 | x | 4.1 | 10 | 2924
C=CCNC(=S)N1CCC(C(=O)c2ccc(C)cc2)CC1 | -1 | -14 | 8 | -2 | -1.5 | 3 | 4081
CCOc1ccc(NC(=O)CCS(=O)(=O)c2ccc(Br)cc2)cc1 | -5 | 14 | 12 | -2 | 2.2 | 2 | 3881
COc1ccc(N2C(=O)CCC(C(C)=O)=C2C)cc1 | -6 | 4 | 11 | -1 | 0.1 | -3 | 22405*
CC(C)CNC(=O)c1cccc(NC(=O)Cc2ccc(Br)cc2)c1 | 3 | 10 | 1 | 0 | 4.6 | -2 | 2374
CCC(C(=O)NC(C)c1ccccc1)C(=O)NC(C)c1ccccc1 (stereo not given) | 10 | 8 | 6 | -5 | 4.0 | 6 | 3988
O=C(O)CCn1cc(/C=N/O)c(-c2cccc([N+](=O)[O-])c2)n1 | -9 | x | x | -1 | x | x | 3028
Cc1cc(-c2ccc(C=Nn3cnnc3)o2)c([N+](=O)[O-])cc1C | x | 8 | 4 | x | 12 | -18 | x
CC(=NO)C1CCC2C3CCC4=CC(=NO)CCC4(C)C3C(O)CC12C (stereo not given) | -7 | 10 | 7 | x | 11 | 5 | 3046
COc1ccccc1N1CCN(c2ncnc3c2oc2ccccc23)CC1 | -26 | -10 | -3 | 20 | 3.1 | 1 | 2915
CCN1C(=O)c2ccc(C(=O)Nc3c(C)cc(C)cc3C)cc2C1=O | -21 | 0 | 2 | -7 | 4.1 | 4 | 3554
O=c1cccc2n1CC1CC2CN(Cc2cccc(Cl)c2Cl)C1 (stereo not given) | -27 | 11 | 6 | -4 | 9.6 | 2 | 20838*
O=C(Oc1cc(=O)n2ccccc2n1)c1ccccc1 | -26 | -1 | 1 | 3 | 5.5 | -2 | 8700
CN1CCN(c2ccc(S(C)(=O)=O)cc2[N+](=O)[O-])CC1 | -25 | 7 | -8 | 4 | 1.6 | 1 | 2227
Cc1cc2c(C)nc(N/N=C/c3ccc(F)cc3)nc2o1 | -4 | x | x | -15 | x | x | 2491
Cc1ccc(C)c2sc(N3CCN(C(=O)c4ccc([N+](=O)[O-])o4)CC3)nc12 | -20 | x | x | 6 | 4.1 | -2 | x
COC(=O)N/N=C/c1ccccc1OCc1ccccc1 | -1 | x | x | -12 | x | x | 2366
O=c1cc(O)nc(SCc2ccccc2)[nH]1 | -26 | 17 | 8 | -4 | 3.4 | 2 | 10687
CCOC(=O)c1csc(NC(=O)c2cc(OC)c(OC)c(OC)c2)n1 | -25 | 3 | 4 | -3 | 4.0 | -3 | 3309
CCN(CC)c1ccc(C(=C2C=CC(=[N+](CC)CC)C=C2)c2ccc(N(CC)CC)cc2)cc1 | 52* | 100* | -32* | x | 45 | 36 | 2073
C=CCn1c(=O)c2c(nc3n2CC(C)CN3Cc2ccccc2)n(C)c1=O (stereo not given) | 9 | -1 | 5 | -3 | -1.3 | 1 | 5819
COc1cc(C(=O)O)c2c(c1C)OC(=O)c1c(C)cc(O)c(C=O)c1O2 | -23 | x | x | -5 | 3.1 | -4 | 5959
CC1CCC(NC(=O)CN2CCN(S(=O)(=O)c3cccs3)CC2)CC1 (stereo not given) | -17 | 2 | 2 | x | 1.4 | 8 | 4089
O=C(c1ccco1)N1CCN(Cc2nnc(-c3ccccc3)o2)CC1 | -2 | 0 | -1 | 6 | -0.4 | 4 | 5113
CCOc1ccc(NS(=O)(=O)c2cc(NC(=O)c3cccc(C)c3)ccc2Cl)cc1 | -3 | 16 | 4 | -8 | -3.1 | 80 | 2323
CCOc1ccc(C(=O)/C=C/c2ccc(SC)cc2)cc1 | -21 | 3 | 10 | -2 | 4.2 | 17 | 10474
COc1ccc(C2C=C3CN(C(=O)OC(C)(C)C)S(=O)(=O)C3CC2OC(=O)c2cccs2)cc1 (stereo not given) | x | 11 | -8 | x | 7.0 | 4 | x
CC(C)(C)NC(=O)/C(=C\c1ccco1)NC(=O)c1cccs1 | -25 | 7 | -2 | -9 | 0.9 | -1 | 10324
O=C(NC1CCCC1)C(c1cccnc1)N(CCc1ccccc1)C(=O)c1ccco1 (stereo not given) | -23 | -2 | 4 | -10 | 0.1 | 1 | 4166
CN(CC(=O)Nc1ccccc1Br)C(=O)CCCSc1nc2ccccc2[nH]1 | -12 | 5 | -1 | 1 | -0.1 | 0 | u
Nc1ccc(Oc2ccc([N+](=O)[O-])cc2[N+](=O)[O-])cc1 | -3 | 3 | 3 | -1 | 14 | 9 | 9086
Cc1ccc(NC2c3ncccc3C(=O)N2C2CCCCC2)cc1C (stereo not given) | -29 | -11 | 15 | -8 | -1.2 | -9 | 11874
Cc1cccc(N2CCN(C(=O)Cn3nc(Cc4ccncc4)c4ccccc4c3=O)CC2)c1C | -3 | -5 | 4 | 10 | -0.4 | 0 | 5721
O=C(COc1ccccc1[N+](=O)[O-])OCCCOC(=O)COc1ccccc1[N+](=O)[O-] | -5 | 8 | 2 | 4 | 5.2 | 7 | 4726
COc1ccc(/C=C/C(=O)NC(=S)N2CCN(c3ccccc3OC)CC2)cc1 | -52 | 12 | 2 | 0 | 3.5 | 16 | 4230
Cc1nnc(Oc2ccccc2)c2ccccc12 | -18 | x | x | 3 | 1.1 | 11 | 3643
